GIV Gai3 FP: inhibitors of GIV GBA-motif binding to rat Galpha-i3. AID 1224905. P08753. 0.42% of 210,000 active. Galpha-i3/FITC-GIV peptide fluorescence polarization, 90 min; hits give low values; scaled: aluminum fluoride 0%, vehicle 100%. percent of control (FP), % (test concentration not listed);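 active = replicate mean at 85% of control or lower, very high polarization wells dropped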;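 also: wells of about 15 µL received 100 nL stock; the first replicate is given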
Target sequence (P08753 whole entry, looked up): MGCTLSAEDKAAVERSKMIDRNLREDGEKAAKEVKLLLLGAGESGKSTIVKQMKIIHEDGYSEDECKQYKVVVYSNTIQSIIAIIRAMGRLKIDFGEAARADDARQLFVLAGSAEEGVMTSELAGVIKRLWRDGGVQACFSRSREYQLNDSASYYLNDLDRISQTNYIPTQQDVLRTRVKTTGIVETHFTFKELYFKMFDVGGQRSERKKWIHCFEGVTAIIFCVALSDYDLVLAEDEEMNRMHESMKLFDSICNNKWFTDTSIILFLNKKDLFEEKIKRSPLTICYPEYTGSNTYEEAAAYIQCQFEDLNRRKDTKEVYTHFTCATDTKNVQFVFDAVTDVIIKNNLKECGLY
HCMV UL50-53 inh: disrupts HCMV UL50-UL53 complex binding. inhibition, % (test concentration not listed). 0.15% of 190,000 active. HTRF UL50-UL53 interaction, normalized percent inhibition;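 active = both replicates at 50% or more, plus weaker picks with an unusually low signal ratio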;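 also: stock transfer was 100 nL into about 20 µL; 0% = negative control wells and 100% = wells with untagged competitor protein; inactives centre near -12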
Sa growth 42C: S. aureus growth inhibition; S. aureus RN4220 growth, OD600, 20 h, 42 °C; hits give low values; relative growth, % (concentration not given with the values); 0.53% of 170,000 active; AID 720641;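 active = growth at 42 °C up to 50% and 20 or more points under that at 30 °C, or under 10% at both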;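 also: 300 nL library stock went into each well; scaled to the means of positive and negative controls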
Sa growth 42C second temp: second read-out of Sa growth 42C, no call of its own (marks repeat the call); relative growth, %; measured here: growth at 30 °C;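 optical density after 20 h as mean of two plates; 100% = untreated growth and lower means inhibition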
Numbers without * were called inactive; . = no result given; & = joins results of further samples.

SMILES	GIV Gai3 FP	HCMV UL50-53 inh	Sa growth 42C	Sa growth 42C second temp
CCN(c1ccccc1)S(=O)(=O)c1c(-c2ccc(C)cc2)csc1C(=O)OC	98	.	99	100
C=CCn1c(N)cc(=O)nc1SCC(=O)Nc1ccccn1	106	-12	100	98
CN1c2ccc(Cl)cc2-c2nc(SCC(=O)Nc3nccs3)ncc2S1(=O)=O	106	-28	.	.
Cc1cc(C)nc(NC(c2cccc(Cl)c2)c2c(NC(=O)c3ccccc3)sc(C)c2C)n1 (stereo not drawn)	104	-19	.	.
CC(C)(C)c1ccc(OCCCn2ccnc2)cc1	109	1	2.3*	1.4*
Cc1cccn2c(=O)c(/C=N/NC(=O)c3ccncc3)c(N3CCCC3)nc12	.	-41	72	62
Nc1ccc2c3c(cccc13)CC2	.	-33	88	101
O=C(NCCC1=CCCCC1)NCc1noc2ccccc12	98	13	118	107
CN(C)CC(C)(C)CN(CCC#N)S(=O)(=O)c1cccc2nsnc12	103	-92	.	.
O=C(NCCc1c[nH]c2ccccc12)c1ccc(N2C(=O)CCS2(=O)=O)cc1Cl	108	-12	.	.
COc1ccc(Br)cc1CO	.	-8	100	102
COc1ccc(C(=O)N2CC(C)OC(C)C2)cc1 (stereo not drawn)	.	1	110	83
Cc1nn(-c2ccccc2)c2c1N(CCCC(=O)NCc1ccccc1)C(=O)CS2	103	.	92	87
COc1ccc(S(=O)(=O)Nc2ccccn2)cc1OC	107	5	79	97
N#CCC(=O)NCCN1CCOCC1	.	-12	115	91
COc1ccccc1NC(=O)Cc1ccccc1	98	-1	109	69
CCOc1cc(/C=C2\NC(=S)N(C3CCCCC3)C2=O)ccc1O	210	-16	71	40
O=C(Nc1ccc(Cl)c(C(F)(F)F)c1)c1cc2nc(-c3ccc4c(c3)OCO4)cc(C(F)(F)F)n2n1	102	0	97	94
CSc1ccccc1NC(=O)CCS(=O)(=O)c1nc(-c2ccc3c(c2)OCO3)cc(C(F)(F)F)n1	108	-4	73	72
O=C(Nc1ccc2c(c1)OCCO2)c1cncc(-c2cccs2)c1	97	-26	83	74
COc1ccccc1NS(=O)(=O)c1cccc(C(=O)NN=C2CCCC2)c1	.	3	109	93
CC(C)NC(=O)NC(c1ccccc1)c1ccccc1	.	-17	81	87
Cc1oc(-c2ccccc2)nc1Cn1cnc2oc(C)c(C)c2c1=O	102	5	.	.
Cc1cccc(C(=O)NCCCn2ccnc2)c1C	.	6	96	98
COc1cccc(Nc2cc(C)nc3c(C)c(-c4ccc(OC)c(OC)c4)nn23)c1	104	-21	.	.
CC1(C)Cc2cccc(C(=O)Nc3cccc4c3CCCC4)c2O1	99	-32	108	85
CCOC(=O)CN1C(=O)C(C)(C)Oc2ccc(C(=O)NC(C)C)cc21	102	1	115	96
Cc1ccc2oc(C(=O)Nc3ccc(S(=O)(=O)Nc4ncccn4)cc3)cc(=O)c2c1	104	-58	110	85
Clc1ccc(-c2noc(-c3ccc(N4CCN(Cc5ccc6c(c5)OCO6)CC4)nn3)n2)cc1	105	5	.	.
COc1ccc(Cl)cc1C(=O)Nc1ccc2nc3n(c(=O)c2c1)CCCC3	102	.	106	91
Cc1ccc(S(=O)(=O)N(CC(=O)Nc2c(C)n(C)n(-c3ccccc3)c2=O)c2ccccc2F)cc1	103	-6	.	.
COC(=O)c1sccc1S(=O)(=O)N1c2ccccc2NC(=O)CC1C (stereo not drawn)	101	-14	94	90
Cn1nc(C(F)(F)F)cc1C(=O)N1CCCC1c1ccc(F)cc1 (stereo not drawn)	100	-19	.	.
C=CCn1c2ccccc2c2nnc(SCC(=O)Nc3nnc(C(C)C)s3)nc21	102	-15	89	83
CN(Cc1ccccc1)Cn1c(CO)nc2ccccc21	.	-65	80	87
Cc1cc(C)n(CCc2nc(-c3cccs3)cs2)n1	.	-11	79	94
CCS(=O)(=O)c1ccc(O)c(NC(=O)COc2ccccc2)c1	96	-2	106	93
Cc1cc2c3cccn3ccn2c1	.	-54	81	8
CCOC(=O)C1=C(C)N=c2s/c(=C\c3c[nH]c4ccccc34)c(=O)n2C1c1ccc(OC)cc1OC (stereo not drawn)	118	-6	.	.
O=C(c1ccc2c(Cl)c3c(nc2c1)CCCC3)N1CCN(c2ccccc2)CC1	102	-19	100	90
O=c1[nH]c(SC2Cc3ccccc3C2O)nc2c1cnn2-c1ccccc1 (stereo not drawn)	.	-16	67	97
C=CCn1c(=O)[nH]c2ccccc2c1=O	106	-32	.	.
CC(C)c1ccc(NC(=O)Cn2nnc(C(=O)NCc3ccc(Cl)cc3)c2N)cc1	98	.	79	87
O=C(COCc1cc(-c2ccc3c(c2)OCO3)on1)Nc1cc(C(F)(F)F)ccc1Cl	116	.	105	104
O=S(=O)(Nc1cccc(-c2ccc(N3CCCC3)nn2)c1)c1ccccc1C(F)(F)F	104	.	100	93
CC1CCc2onc(C(=O)N3CCN(c4cccc(C(F)(F)F)c4)CC3)c2C1 (stereo not drawn)	99	.	99	95
CC(C)=CC(=O)Nc1nc2ccc(S(C)(=O)=O)cc2s1	107	-6	112	88
COc1ccc(-c2cc(C(C)=O)c(C)n2CCC(=O)Nc2cc(Cl)ccc2C)cc1	105	.	101	97

Some of the entries so far, with bars between the fields.
Molecule | GIV Gai3 FP | HCMV UL50-53 inh | Sa growth 42C | Sa growth 42C second temp
COc1ccccc1NS(=O)(=O)c1cccc(C(=O)NN=C2CCCC2)c1 | . | 3 | 109 | 93
CC(C)NC(=O)NC(c1ccccc1)c1ccccc1 | . | -17 | 81 | 87
Cc1oc(-c2ccccc2)nc1Cn1cnc2oc(C)c(C)c2c1=O | 102 | 5 | . | .
Cc1cccc(C(=O)NCCCn2ccnc2)c1C | . | 6 | 96 | 98
COc1cccc(Nc2cc(C)nc3c(C)c(-c4ccc(OC)c(OC)c4)nn23)c1 | 104 | -21 | . | .
CC1(C)Cc2cccc(C(=O)Nc3cccc4c3CCCC4)c2O1 | 99 | -32 | 108 | 85
CCOC(=O)CN1C(=O)C(C)(C)Oc2ccc(C(=O)NC(C)C)cc21 | 102 | 1 | 115 | 96
Cc1ccc2oc(C(=O)Nc3ccc(S(=O)(=O)Nc4ncccn4)cc3)cc(=O)c2c1 | 104 | -58 | 110 | 85
Clc1ccc(-c2noc(-c3ccc(N4CCN(Cc5ccc6c(c5)OCO6)CC4)nn3)n2)cc1 | 105 | 5 | . | .
COc1ccc(Cl)cc1C(=O)Nc1ccc2nc3n(c(=O)c2c1)CCCC3 | 102 | . | 106 | 91
Cc1ccc(S(=O)(=O)N(CC(=O)Nc2c(C)n(C)n(-c3ccccc3)c2=O)c2ccccc2F)cc1 | 103 | -6 | . | .
COC(=O)c1sccc1S(=O)(=O)N1c2ccccc2NC(=O)CC1C (stereo not drawn) | 101 | -14 | 94 | 90
Cn1nc(C(F)(F)F)cc1C(=O)N1CCCC1c1ccc(F)cc1 (stereo not drawn) | 100 | -19 | . | .
C=CCn1c2ccccc2c2nnc(SCC(=O)Nc3nnc(C(C)C)s3)nc21 | 102 | -15 | 89 | 83
CN(Cc1ccccc1)Cn1c(CO)nc2ccccc21 | . | -65 | 80 | 87
Cc1cc(C)n(CCc2nc(-c3cccs3)cs2)n1 | . | -11 | 79 | 94
CCS(=O)(=O)c1ccc(O)c(NC(=O)COc2ccccc2)c1 | 96 | -2 | 106 | 93
Cc1cc2c3cccn3ccn2c1 | . | -54 | 81 | 8
CCOC(=O)C1=C(C)N=c2s/c(=C\c3c[nH]c4ccccc34)c(=O)n2C1c1ccc(OC)cc1OC (stereo not drawn) | 118 | -6 | . | .
O=C(c1ccc2c(Cl)c3c(nc2c1)CCCC3)N1CCN(c2ccccc2)CC1 | 102 | -19 | 100 | 90
O=c1[nH]c(SC2Cc3ccccc3C2O)nc2c1cnn2-c1ccccc1 (stereo not drawn) | . | -16 | 67 | 97
C=CCn1c(=O)[nH]c2ccccc2c1=O | 106 | -32 | . | .
CC(C)c1ccc(NC(=O)Cn2nnc(C(=O)NCc3ccc(Cl)cc3)c2N)cc1 | 98 | . | 79 | 87
O=C(COCc1cc(-c2ccc3c(c2)OCO3)on1)Nc1cc(C(F)(F)F)ccc1Cl | 116 | . | 105 | 104
O=S(=O)(Nc1cccc(-c2ccc(N3CCCC3)nn2)c1)c1ccccc1C(F)(F)F | 104 | . | 100 | 93

New compounds follow.
SMILES	GIV Gai3 FP	HCMV UL50-53 inh	Sa growth 42C	Sa growth 42C second temp
Nc1ccccc1S(=O)(=O)Nc1ccccc1	.	-4	82	96
O=C(Nc1ccc(F)c(F)c1)c1ccc(=O)n(Cc2ccc(F)cc2)c1	105	.	124	105
Cc1cc(=O)oc2cc(NC(=O)CC(CC(=O)O)c3ccccc3)ccc12 (stereo not drawn)	105	8	93	88
CCc1ccccc1NC(=O)c1oc(=O)c2ccccc2c1-c1ccccc1	100	.	110	95
Cc1ccc(Sc2c(O)c3ccccc3oc2=O)cc1	.	-7	88	38
CC1=C(C(=O)OCc2ccccc2)C(c2ccc[nH]2)C(C#N)=C(S)S1 (stereo not drawn)	.	-14	102	65
Cc1ccc(N=C2NC(=O)/C(=C\c3cn(C)c4ccccc34)S2)c(C)c1	101	-40	95	77
COc1ccccc1N1CCN(S(=O)(=O)c2ccc3c4c(cccc24)C(=O)N3)CC1	99	.	110	86
CC1(C)Cc2c(ccc3ccccc23)CN1	92	10	102	106
CN1CCC(OC(=O)c2ccco2)CC1	99	-7	96	86
N#CCN(C(=O)CSc1nccn1-c1cccc(Cl)c1)c1ccccc1	.	-1	110	99
CCOC(=O)c1sc2nc(C)nc(NC3CCCCC3C)c2c1C (stereo not drawn)	118	15	.	.
CC(CNC(=O)c1ccc(CSc2nc3ccncc3n2Cc2ccccc2)cc1)c1ccccc1 (stereo not drawn)	115	-5	122	106
O=c1oc2ccc3ccccc3c2cc1-c1nnc(Nc2cccc(C(F)(F)F)c2)s1	122	4	97	97
O=S(=O)(c1ccc2oc(=S)n(CN3CCOCC3)c2c1)N1CCOCC1	.	-34	105	95
CCC(=O)N1CCc2cc(S(=O)(=O)NC(Cc3ccccc3)C(=O)O)ccc21 (stereo not drawn)	96	.	91	85
COc1ccc(-c2cc3nc(-c4ccc(Br)cc4)cc(C(F)(F)F)n3n2)cc1	104	-13	101	85
CC1CC2(CCCCC2)Nc2ccccc21 (stereo not drawn)	110	2	97	85
CN(C)c1ccc(Nc2ncnc3c2c(-c2ccccc2)cn3-c2cccc(Cl)c2)cc1	107	.	104	99
Cc1noc(Cn2c(=O)c3cc4c(cc3n(CC(=O)Nc3cccc(Cl)c3)c2=O)OCO4)n1	106&111	-10	111	95
CCCNC(=O)N(C)c1ncnnc1NC	105	-5	101	78
CCN1CCN(CCCNC(=O)c2ccc3nc(/C=C(\O)c4ccc(OC)cc4)c(=O)[nH]c3c2)CC1	237	.	129	109
CCOC(=O)c1c(S(=O)(=O)NC2CCN(C(=O)OCC)CC2)c(C)n(C)c1C	108	18	100	103
COC(=O)c1cc2oc3ccccc3c2n1CC(=O)Nc1ccc(C)cc1Cl	100	-10	98	87
CCOC(=O)CNC(=O)c1sc2nc(C)nc(N3CCOCC3)c2c1C	109	-22	.	.
COc1ccc(-c2onc(C)c2C)cc1S(=O)(=O)Nc1ccc(OC(F)(F)F)cc1	104	.	72	86
O=C(O)c1ccc2c(c1)C(=O)N(NC(=O)c1ccc(O)cc1)C2=O	100	9	102	108
COc1cc2c(cc1OC)C(c1ccccc1)N(C(=O)c1oc3ccccc3c1C)CC2 (stereo not drawn)	107	.	110	92
CN(CCCc1nc2ccccc2[nH]1)S(=O)(=O)c1ccc(Cl)cc1	98	-10	104	72
c1ccc(-c2cn3ccsc3n2)cc1	102	-11	89	80
CC(C)OC(=O)/C(C#N)=C/c1cn(C)c2ccccc12	100	2	95	72
CCn1c(SC)nnc1C1CCN(C(=O)NCc2ccccc2)CC1	101	14	83	102
O=C(c1cccs1)C(O)NS(=O)(=O)c1ccccc1 (stereo not drawn)	101	17	94	78
Cc1ccc(OCCOCCOc2ccccc2/C=N\n2cnnc2)cc1	107	-4	114	95
Cc1nn(-c2ccc(N3CCCCC3)nn2)c(C)c1CCC(=O)Nc1cccc(F)c1	96	.	75	85
Cc1ccc(NC(=O)CN2C(=O)CCn3nc(-c4cccn4C)cc32)c(Cl)c1	116	.	109	94
O=C(O)CCC(=O)N1CCCC1	99	-22	88	86
COc1ccc(C(=O)Nc2ccc3c(c2)N(C2CCCC2)C(=O)c2ccccc2S3)cc1OC	105	.	113	100
CN(C)c1nc(N)nc(CSc2ccccn2)n1	103	1	105	90
Cc1noc(C)c1CSc1nnc(-c2ccc(F)cc2)c2ccccc12	.	-31	78	96
CCc1ccc(NC(=O)Cn2c(=O)n(CCc3ccccc3)c(=O)c3c4c(sc32)CCCC4)cc1	105	.	120	98
O=C(COC(=O)CCc1c[nH]c2ccccc12)Nc1ccccc1Cl	.	-28	100	81
Cc1ccccc1CNC(=O)c1ccc(-n2c(C)cc3c2CCCC3)cc1	105	.	112	113
Cc1cc2n(n1)CCCN2C(=O)CCC(=O)Nc1ccccc1C(=O)c1ccccc1	105	-4	.	.
COc1ccc(N2C(=O)c3c(C)nc4ccccc4c3C2=O)cc1OC	103	-29	.	.
O=C(CC1CC(=O)Oc2ccccc21)Nc1nccs1 (stereo not drawn)	111	-3	99	90
CC(=O)SCCC(=O)N1CCn2c3c(c4cc(C)ccc42)CCCC31 (stereo not drawn)	98	-7	98	90
NS(=O)(=O)c1ccc(Cl)c(Cl)c1	103	-4	110	88
Cc1nn(C)c(C)c1NC(=O)CNC(=O)Cc1cccc2ccccc12	.	-16	97	86
Clc1cc(N2CCCC2)nc(N2CCCC2)n1	97	-5	96	84
Cn1c(-c2ccccc2)c[n+]2c1CCCCC2	.	-23	104	82

Screens: PubChem, ICCB-Longwood Screening Facility, Harvard Medical School
